ClpP mod: qHTS Assay for Activators of ClpP; Potency, µM (top dose mostly 57.5 µM), for inactives: at the highest dose activity change, negative = active; purified B. subtilis ClpP, FRET peptide cleavage, 20 min; actives 1.9% (n = 340,000); ATP-dependent Clp protease proteolytic subunit (Bacillus subtilis (strain 168)), P80244; active = well fitted falling curve with a large enough effect; inconclusive = small, poorly fitted or top-dose-only effect; inactive = no such curve, though single readings can be large or run the other way; note: potency is the fitted concentration of half-maximal effect; the source files actives as falling curves though it sought activators and does not explain the sign; nearly all actives have a fitted effect of over 65% in size; many hits overshoot -100%
Target sequence (P80244 whole entry, looked up): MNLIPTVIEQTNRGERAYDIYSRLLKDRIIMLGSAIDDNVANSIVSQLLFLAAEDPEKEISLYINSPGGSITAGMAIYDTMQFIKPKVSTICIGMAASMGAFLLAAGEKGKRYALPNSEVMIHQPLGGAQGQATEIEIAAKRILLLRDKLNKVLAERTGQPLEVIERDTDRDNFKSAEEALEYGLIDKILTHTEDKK
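Purified B. subtilis ClpP, 10 microg/mL final in Tris/HCl pH8 with KCl, BSA, glycerol and Tween-20, cleaved an Abz/nitrotyrosine-quenched decapeptide. Fluorescence (ex 320, em 430) was read at 0 and 20 min at room temperature. Delta was normalized to 5.8 microM ADEP and DMSO/no-enzyme controls.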
Menin MLL FP FL: inhibitors of human menin-MLL interaction, wild-type MLL peptide. FP activity change, % at 61.4 µM. Fluorescence polarization, fluorescein-MLL peptide displacement from menin. 290,000 tested, under 10 active. AID 1766; inconclusive = falling polarisation curve, or a change in total fluorescence; inactive = total fluorescence flat and polarisation flat or rising; no compound was filed as active; the % refers to the polarisation; negative = inhibition;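 note: % of control where 0% means no effect; inhibitors lower the polarisation; unlabelled MLL peptide was the positive control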
Sfp PPTase inh: blocks B. subtilis Sfp PPTase activity; Q9F4F7; Biochemical Sfp PPTase activity, qHTS; Potency, µM, for inactives: max response, negative = inhibition, most hits filed as inhibitors; actives 3.5% (n = 310,000); active = well fitted inhibition curve with a large enough effect; inconclusive = small, poorly fitted or top-dose-only effect, or another doubt; inactive = no such curve, though single readings can be large or run the other way;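 note: the enzyme is Sfp with the accession as filed and its product quenches rhodamine fluorescence; potency is the fitted concentration of half-maximal effect; 0% = enzyme reaction without inhibitor and -100% = no enzyme wells; top concentration of the series not given in the record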
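Reaction rates are the 30-min fluorescence difference (ex 525, em 598 nm) in wells containing 15 nM Sfp, 5 uM rhodamine-CoA and 12.5 uM BHQ-2-YbbR at pH 7.6 with 10 mM MgCl2.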
gsp antag: antagonists of gsp mutant (McCune-Albright syndrome) | Potency, µM (titrated, usually from 76.9 µM), for the others: top-dose activity change, negative = inhibition, most hits filed as inhibitors | gsp-mutant cells, cAMP HTRF, 30 min; control for the full effect not named in the record | actives 0.4% (n = 340,000); active = falling curve of any shape with a large fitted effect; inconclusive = falling curve, mostly with a smaller effect; inactive = flat or rising curve; cell line not stated here;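 note: intracellular cAMP measured with PDE inhibitor Ro 20-1724 present during compound exposure; potency is the fitted concentration of half-maximal effect; % is set by controls: 0 for no effect and ±100 for the full control effect; nearly all actives have a fitted effect of over 65% in size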
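HTRF cAMP read-out (cAMP-d2 plus anti-cAMP antibody-K in lysis buffer, 30 min RT). Before lysis, cells are exposed to compounds with […] for 30 min at 37C in DPBS containing Ca/Mg, BSA and Tween 20.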
gsp agonist: gsp mutant agonism; gsp mutant cells, cAMP HTRF, 30 min; control for the full effect not named in the record; actives 0.13% (n = 340,000); Potency, µM (doses to about 76.9 µM), for inactives: top-dose activation (cAMP increase), most hits filed as activators; active = well fitted activation curve with a large enough effect; inconclusive = small, poorly fitted or top-dose-only effect, or another doubt; inactive = no such curve, though single readings can be large or run the other way; cell line not stated here;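 note: phosphodiesterase inhibitor Ro 20-1724 added with compounds to block cAMP breakdown; potency is the fitted concentration of half-maximal effect; nearly all actives have a fitted effect of over 60% in size; about a fifth of the inactives were tested at one dose only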
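Cells stably selected in G418 were plated at 2000/well, grown 16-24 hr, then given compounds in DMSO with the PDE inhibitor […] (300 uM solution added) for 30 min at 37C; cAMP was read by HTRF.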
TRPML1 inh: blocks the human TRPML1 channel; Q9GZU1; TRPML1-inducible cells, Ca2+ dye fluorescence, FDSS; active compounds read low; inhibition of EC80 agonist-evoked calcium signal; activity change, negative = inhibition, % (test concentration not listed); actives 0.02% (n = 390,000); AID 624415; in the data active means activity change below about -50%; inconclusive means about -30% to -50%; inactive means above about -30%;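 note: stimulus is agonist 54-4 at its EC80 concentration; % is set by controls: 0 for no effect and ±100 for the full control effect; compound concentration not given in the record; the text of the record puts the active cut at -80%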
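Calcium fluorescence in TRPML1-DL cells induced overnight with Tet: a 110 s read after compound pin addition, then a 110 s antagonist read after challenge with 54-4 at 4 uM final (EC80).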
TRPV1 PAM: human TRPV1 potentiation; Q8NER1; TRPV1-expressing cells, Fluo-8 calcium influx, capsaicin EC20 potentiation; host cell line not named in the record; control for the full effect not named in the record; actives 0.02% (n = 320,000); potentiation, % at 8.33 µM; active means potentiation above 80%; inconclusive means 30% to 80%; inactive means below 30%; note: 0% is about no effect
Target sequence (Q8NER1 whole entry, looked up): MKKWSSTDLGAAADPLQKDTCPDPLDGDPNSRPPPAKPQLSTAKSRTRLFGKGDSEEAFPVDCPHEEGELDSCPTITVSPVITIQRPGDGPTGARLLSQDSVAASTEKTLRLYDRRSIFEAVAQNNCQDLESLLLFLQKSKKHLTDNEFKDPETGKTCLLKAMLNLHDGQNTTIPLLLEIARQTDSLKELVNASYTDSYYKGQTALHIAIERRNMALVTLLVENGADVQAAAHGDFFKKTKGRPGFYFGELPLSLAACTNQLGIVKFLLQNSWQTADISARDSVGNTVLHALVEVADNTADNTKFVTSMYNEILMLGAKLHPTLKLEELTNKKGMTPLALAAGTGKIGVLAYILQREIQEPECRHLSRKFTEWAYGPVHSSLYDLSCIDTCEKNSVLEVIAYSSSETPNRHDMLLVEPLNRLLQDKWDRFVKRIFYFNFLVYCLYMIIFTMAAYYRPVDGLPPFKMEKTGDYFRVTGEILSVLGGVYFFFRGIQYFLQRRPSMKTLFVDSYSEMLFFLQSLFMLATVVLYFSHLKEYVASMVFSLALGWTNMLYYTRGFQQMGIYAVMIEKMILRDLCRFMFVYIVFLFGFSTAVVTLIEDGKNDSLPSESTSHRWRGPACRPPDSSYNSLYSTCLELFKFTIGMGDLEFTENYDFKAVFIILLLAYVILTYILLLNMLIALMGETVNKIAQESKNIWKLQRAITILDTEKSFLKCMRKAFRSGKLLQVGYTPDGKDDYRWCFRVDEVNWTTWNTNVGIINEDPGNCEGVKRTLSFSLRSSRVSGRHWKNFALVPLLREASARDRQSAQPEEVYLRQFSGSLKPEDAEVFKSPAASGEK
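TRPV1-expressing cells were cultured overnight at 35.5C and loaded with Fluo-8 calcium dye for 40 to 90 min at room temperature. After a 10 s baseline, compound was added and calcium influx was read kinetically for 3 min (ex 480/em 520 nm).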
An asterisk follows results filed as active; ? = inconclusive; nt = not tested or not shown; & = joins results of further samples; [ ] = another dose, or the depositor's remark.

| SMILES | gsp antag | gsp agonist | TRPML1 inh | Menin MLL FP FL | ClpP mod | TRPV1 PAM | Sfp PPTase inh |
| --- | --- | --- | --- | --- | --- | --- | --- |
| COc1ccc(NC(=O)COC(=O)c2ccc(O)cc2)c([N+](=O)[O-])c1 | nt | -5%[15.4 µM] | -17 | -1.1 | nt | 10 | 21% |
| CC1=NN(C(C#N)c2ccccc2C)C(c2ccccc2)C1 (centres undefined) | 1% | -3% | 6 | -1.8 | 0.2% | ? | 23% |
| Cc1occc1-c1nnc(SCC(=O)NC2CCCC2)n1-c1ccccc1 | 1% | -22% | -3 | 0.9 | 2.6% | 25 | 15% |
| CCCCNC(=O)c1ccccc1SCC(=O)NC1CCCCCCC1 | -11% | -2% | -3 | nt | 0.8% | 11 | nt |
| O=C(CC1Sc2ccccc2NC1=O)NNc1cccc(Cl)c1Cl (centres undefined) | -14% | 10% | 8 | nt | 1.1% | nt | nt |
| Cc1ccc2c(CSc3nc4ccccc4c(=O)n3CCCO)cc(=O)oc2c1C | 8% | -25% | 0 | -1.1 | -1.2% | 6 | -16% |
| Cc1ccc2c(c1)N(C(=O)CCC(=O)NCCCN1CC(C)CC(C)C1)CCO2 (centres undefined) | 4% | -53%[inhibitor] | 20 | -6.0 | 1.4% | 26 | 18% |
| CC(NC(=O)COC(=O)c1cc(=O)[nH]c2ccccc12)c1ccccc1 (centres undefined) | -4% | -17% | 19 | -0.9 | nt | 2 | 1% |
| O=C1C2C3C=CC(O3)C2C(=O)N1N=Cc1ccc2c(c1)OCO2 (centres undefined) | 7% | -1% | 38 | nt | nt | nt | nt |
| CC(=O)Cc1nsc(NC(=O)c2ccccc2Cl)n1 | 2% | 12%[15.4 µM] | 13 | 0.7 | -1.2% | -1 | 12% |
| O=C(OCc1ccc([N+](=O)[O-])cc1Cl)c1cnccn1 | 3% | -21% | -12 | 0.2 | nt | -5 | 3% |
| CC(C(=O)Nc1sc2c(c1C(=O)NCC1CCCO1)CCC2)N1C(=O)c2ccccc2C1=O (centres undefined) | 4% | 4% | 1 | 11 | 1.1% | -17 | 3% |
| Cc1ccc(C)c(S(=O)(=O)N2CCN(CC(=O)Nc3cc(C)on3)CC2)c1 | -4% | -4% | -7 | 1.9 | 0.1% | -6 | 10% |
| CCOC(=O)COc1ccc(/C=C2/C(=O)NN(c3ccc(F)cc3)C2=O)cc1OC | ? | -27% | 33 | 4.1 | -3.3% | 28 | ? |
| Cn1c(SCC(=O)Nc2ccc(F)cc2F)nnc1-c1cccnc1 | 5% | -48%[inhibitor] | 11 | -1.3 | -3.6% | 10 | 12% |
| COc1ccc(OC)c(/C=N/NC(=S)NCCc2ccccc2)c1 | -13% | 20% | -5 | 2.9 | 3.3% | ? | 12% |
| Cc1nc(NC(=O)C23CCC(C)(C(=O)O2)C3(C)C)sc1C (centres undefined) | 1% | ? | 15 | 0.1 | -1.0% | 6 | 8% |
| Cc1ccc(NC(N)=S)cc1 | 7% | -26% | 14 | 3.4 | -1.9% | -4 | 4% |
| COc1ccc(/C=C(\C#N)C(=O)OCC(=O)N2CC(C)OC(C)C2)cc1 (centres undefined) | -7% | ? | 5 | 4.7 | nt | -5 | 11% |
| COc1cccc(-c2cc(C(F)(F)F)nc(N3CCC(C)CC3)n2)c1 | 8% | 7% | 19 | -0.6 | 25µM* | -7 | 12% |
| COc1ccc(CC(=O)OCC(=O)NC2CCCCC2)cc1 | 7% | 29% | 3 | nt | 0.0% | -4 | nt |
| O=C(Nc1ccccc1)/C(=C\c1cccs1)NC(=O)c1ccccc1 | 9% | 5%[15.4 µM] | 0 | 7.9 | -7.4% | -14 | 0% |
| N#Cc1sc2nc(-c3ccccc3)cc(C(F)(F)F)c2c1N | 3% | 7% | -9 | 4.1 | 2.2% | 12 | -2% |
| Cn1c(=O)c(Cc2ccccc2)c(O)c2ccccc21 | 13% | 11% | -6 | 1.2 | 25µM* | 13 | 22% |
| COc1ccc(NC(=O)C2C3CCC(O3)C2C(=O)O)cc1OC (centres undefined) | 1% | -6% | 6 | -1.5 | 0.9% | -4 | -8% |
| O=C(O)CN1C(=O)/C(=C\c2cn(-c3ccccc3)nc2-c2ccccc2)SC1=S | -16% | -16%[15.4 µM] | 0 | 0.1 | nt | 3 | ? |
| Nc1nonc1C(=O)NCCNCc1ccccc1OCc1ccc(F)cc1 | 9% | -31%[inhibitor] | 11 | -1.4 | 1.5% | -15 | -7% |
| COc1ccc(-n2c(SCC(=O)N3CCOCC3)nc(O)c(Cc3ccccc3)c2=O)cc1 | 0% | -2% | -13 | 6.6 | -1.0% | -28 | 0% |
| CC(=O)c1c(COC(=O)c2ccccc2Cl)nc2ccccc2[n+]1[O-] | -22% | -16% | 11 | 6.4 | 0.0% | -22 | 7% |
| Cc1ccc(S(=O)(=O)N2CCC(C(=O)OCC(=O)N(C)C3CCCCC3)CC2)cc1C | 9% | -1% | -16 | nt | 1.2% | 2 | nt |
| CCOC(=O)c1c(S(=O)(=O)NCc2ccc(C)o2)c(C)n(C)c1C | 4% | 2% | -8 | -2.2 | 1.5% | 4 | 10% |
| Cc1ccc(NC(=O)CCN2C(=O)c3cccc4cccc(c34)C2=O)cc1 | -2% | 7% | 37 | -0.4 | nt | -20 | -18% |
| COc1cc(CNCc2ccccn2)ccc1OCc1ccccc1Cl | -13% | 0% | 10 | 4.4 | -2.7% | 5 | 1% |
| CC(C)NC(=O)CN1CCC(c2nc3ccccc3[nH]2)CC1 | 9% | -41%[inhibitor] | 1 | nt | 0.2% | -31 | 6% |
| O=C(COC(=O)/C=C/c1cccc(Br)c1)NCCC1=CCCCC1 | 4% | 5% | 4 | 3.4 | 2.0% | 4 | 8% |
| c1ccc2c(c1)CCN(C1CCCCC1)C2 | 14% | 12% | -18 | 0.9 | -3.9% | 0 | -3% |
| CCOC(=O)N1CCN(/C=C(\C#N)c2nc3ccccc3s2)CC1 | ? | -40%[inhibitor] | 7 | ? | -1.4% | -3 | -4% |
| CCOC(=O)C1(c2ccccc2)NC(c2ccccc2C)C2C(=O)N(c3ccc4c(c3)OCO4)C(=O)C21 (centres undefined) | 12% | -1% | 0 | 0.7 | -1.9% | 4 | 14% |
| CN(CC(=O)Nc1ccccc1Cl)C(=O)c1cc(C2CC2)nn1-c1ccccc1 | -10% | 2% | -9 | nt | -0.4% | -12 | nt |
| CN(C)S(=O)(=O)c1ccc(S(=O)(=O)N2CCN(CCC#N)CC2)cc1 | 2% | -11% | -14 | -0.5 | 0.0% | -1 | -15% |
| CC1CC(C)CN(c2ccc(-n3cnnn3)cc2[N+](=O)[O-])C1 (centres undefined) | -29% | -51%[inhibitor] | 33 | 0.3 | 1.5% | -2 | -2% |
| Clc1ccc(/C=C/c2nc3ccccc3[nH]2)cc1 | -16% | -9% | 16 | 8.8 | 63% | -13 | -2% |
| CC(C)(C)c1nnc(NC(=O)CCC2CCCCC2)s1 | nt | -44%[inhibitor] | 1 | nt | 0.2% | nt | nt |
| C=CCN1C(=NC(=O)COc2ccc(Cl)cc2)SC2CS(=O)(=O)CC21 (centres undefined) | -14% | -6% | 23 | 3.6 | -2.0% | -4 | -1% |
| CCOc1cc(/C=C2\SC(=S)N(N3CCOCC3)C2=O)ccc1O | 0% | 3% | 3 | ? | 1.2% | -2 | 24% |
| Cc1ccc(C)c(NC(=S)NCc2ccccc2)c1 | 5% | ? | -7 | 1.3 | nt | -8 | 21% |
| COc1ccc(-c2noc(N3CCC(C(=O)NCCCN4CCC(C)CC4)CC3)n2)cc1 | 9% | ? | 1 | -1.0 | 0.5% | -4 | 3% |
| CCc1ccc(CNC(=O)CCC(=O)N2Cc3cccc(OC)c3Oc3ncccc32)cc1 | -6% | -72%[inhibitor] | 14&-2 | -7.2 | 0.3%&-2.2% | 5 | 9% |
| CCN1CCOC(CC(=O)Nc2ccc([N+](=O)[O-])cc2)C1=O (centres undefined) | 4% | -2%[15.4 µM] | -4 | -2.9 | nt | 5 | 6% |
| CCC(C(=O)NCc1ccco1)n1nc(-c2ccc(OC)cc2)ccc1=O (centres undefined) | -2% | 0% | 5 | 5.2 | -6.9% | 13 | 5% |
| CC(=O)c1cccc(NC(=O)CN2C(=O)COc3ccc(Cl)cc32)c1 | 7% | 1% | 5 | 5.3 | 0.0% | -11 | 3% |
| Cc1ccnc(NS(=O)(=O)c2ccc(NC(=O)c3ccc(Br)o3)cc2)n1 | -6% | -2%[15.4 µM] | -12 | 9.4 | -1.1% | 12 | 14% |
| CCOc1ccc(NC(=O)CSc2nc3ccccc3c(=O)n2Cc2cccs2)cc1 | 4% | ? | -14 | -1.7 | -0.1% | 6 | 16% |
| Cc1ccc(-c2cn(-c3ccccc3)c(SCC(=O)NC3CCS(=O)(=O)C3)n2)cc1C (centres undefined) | -7% | -5% | 12 | 5.2 | 3.1% | 8 | -11% |
| Cc1sc(N/N=C/c2cccnc2)nc1-c1ccccc1 | ? | -23% | -5 | 2.0 | -2.2% | 13 | -99% |

One compound at a time, from the list above.
Record of CCCCNC(=O)c1ccccc1SCC(=O)NC1CCCCCCC1 → gsp antag = -11%; gsp agonist = -2%; TRPML1 inh = -3; Menin MLL FP FL = nt; ClpP mod = 0.8%; TRPV1 PAM = 11; Sfp PPTase inh = nt
Record of COc1cc(CNCc2ccccn2)ccc1OCc1ccccc1Cl → gsp antag = -13%; gsp agonist = 0%; TRPML1 inh = 10; Menin MLL FP FL = 4.4; ClpP mod = -2.7%; TRPV1 PAM = 5; Sfp PPTase inh = 1%

Single values from the results shown.
In Menin MLL FP FL, `CC(=O)c1cccc(NC(=O)CN2C(=O)COc3ccc(Cl)cc32)c1` has 5.3
In ClpP mod, `CCOc1cc(/C=C2\SC(=S)N(N3CCOCC3)C2=O)ccc1O` has 1.2%
